Rango dissoc inh: qHTS Assay for Inhibitors of RanGTP induced Rango (Ran-regulated importin-beta cargo) - Importin beta complex dissociation. 0.071% of 340,000 active. Snurportin-1 (Homo sapiens) + GTP-binding nuclear protein Ran (Homo sapiens) + Importin …. Biochemical FRET Rango-importin beta, RanGTP-induced dissociation. Potency, µM (highest dose often 46.1 µM), for inactives: top-dose activity change, negative = inhibition; active means falling FRET ratio curve, often poorly fitted, with flat reads before Ran was added; inconclusive means other falling curves, or compound fluorescence or quenching; inactive means flat or rising ratio curve;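 also: potency is read from the fitted curve at half-maximal effect; % of control where 0% means no effect; nearly all actives have a fitted effect of over 45% in size; -100% = wells without RanGTP and RCC1; the record marks most hits as doubtful in a second field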
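Compounds preincubate 5 min with complex of recombinant Rango and importin beta in PBS with 1 mM DTT. Ran (0.6 uM) loaded with 2 mM GTP plus 0.2 uM RCC1 starts dissociation; FRET is recorded 45 min later.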
GLA inh pH 4.5: qHTS Assay for Inhibitors of Human alpha-Galactosidase at pH 4.5. Alpha-galactosidase A (Homo sapiens), P06280. purified enzyme, 4-MU-alpha-Gal fluorescence, pH 4.5. activity change, negative = inhibition, % at 105 µM. 230,000 tested, under 10 active. AID 1467, 2008; inconclusive = small, poorly fitted or top-dose-only inhibition, or a rising curve; inactive = flat fitted curve, though single readings scatter; no compound was filed as active;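 also: 0% = full activity with enzyme and -100% = basal without enzyme; dose as in the result columns while the protocol names 77 µM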
Target sequence (P06280 whole entry, looked up): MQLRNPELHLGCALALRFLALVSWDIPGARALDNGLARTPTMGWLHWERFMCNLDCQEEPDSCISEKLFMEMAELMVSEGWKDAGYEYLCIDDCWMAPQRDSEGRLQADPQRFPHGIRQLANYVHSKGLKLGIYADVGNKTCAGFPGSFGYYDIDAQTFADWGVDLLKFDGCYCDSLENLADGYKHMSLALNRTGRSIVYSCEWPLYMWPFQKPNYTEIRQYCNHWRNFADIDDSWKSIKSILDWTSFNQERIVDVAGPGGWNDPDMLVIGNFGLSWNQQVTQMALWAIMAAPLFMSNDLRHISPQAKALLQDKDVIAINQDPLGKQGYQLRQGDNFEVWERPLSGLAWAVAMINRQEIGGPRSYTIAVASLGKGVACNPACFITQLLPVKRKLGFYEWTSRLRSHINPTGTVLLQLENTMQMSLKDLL
miR-21 reporter: qHTS Assay for Modulators of miRNAs and/orActivators of miR-21; HeLa miR-21 FLuc reporter, luciferase, 48 h; Potency, µM (series often up to 38.3 µM), for the others: at the highest dose reporter change, positive = more light; 340,000 tested, under 10 active; AID 2288, 2010; active = well fitted rising curve with a large enough effect; inconclusive = small, poorly fitted or top-dose-only effect; inactive = no such curve, though single readings can be large or run the other way;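 also: % of control where 0% means no effect; miR-21 action dims this reporter so a rising signal means less miR-21 action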
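Luminescence from a firefly luciferase reporter carrying a miR-21 binding site downstream, stably expressed under a CMV promoter in HeLa cells that make miR-21 endogenously, reports miRNA modulation after 48 h compound exposure up to approximately 40uM final.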
Rango-impB inh: qHTS Assay for Inhibitors of Rango (Ran-regulated importin-beta cargo) - Importin beta complex formation; Importin subunit beta-1 (Homo sapiens), Q14974; Potency, µM (top dose mostly 92.2 µM), for the others: top-dose inhibition of complex formation; 0.031% of 340,000 active; Rango CFP/YFP FRET sensor + importin beta, 45 min; active = rising FRET ratio curve, often small or poorly fitted; inconclusive = mostly compound fluorescence or quenching in the first reads; inactive = flat curves in all reads;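 also: potency is read from the fitted curve at half-maximal effect; 0% = DMSO wells and 100% = buffer wells lacking importin beta; nearly all actives have a fitted effect of over 15% in size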
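FRET biosensor Rango (snurportin 1 IBB between N-terminal EYFP and C-terminal Cerulean), 50 nM in PBS/1 mM DTT/0.02% Tween-20/0.1% BSA, preincubated 5 min RT with compound; 0.125 microM importin beta added, 45 min RT, CFP/YFP FRET ratio read.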
* = called active by the depositor; ? = inconclusive; · = no result given; & = joins results of further samples. The list is partial; count on the stated rates, not on these rows.

SMILES	Rango dissoc inh	GLA inh pH 4.5	miR-21 reporter	Rango-impB inh
CC(=O)C(C)n1c(CN2CCN(C(=O)c3ccco3)CC2)nc2c1c(=O)n(C)c(=O)n2C (centres undefined)	-8%	·	-7%	0.8%
O=C1C2CCCCN2C(=O)N1CCN1CCN(c2ccc([N+](=O)[O-])cc2)CC1 (centres undefined)	?	-5	7%	?
CC(C)C(=O)N1CCN(c2ccccc2NC(=O)c2cc([N+](=O)[O-])ccc2N2CCOCC2)CC1	-6%	-3	18%	-2.8%
N#CC1=C(N)Oc2cc(N)ccc2C1C1CC=CCC1 (centres undefined)	?	8	16%	?
COc1cc(/C=N/NC(=O)COc2c(C)cc([N+](=O)[O-])cc2C)ccc1OC(=O)c1ccccc1Br	-5%	-3	-8%	-0.8%
Cc1ccc(N(CC(=O)Nc2ccc(Br)c(C)c2)S(=O)(=O)c2c(C)[nH]c(=O)[nH]c2=O)cc1	?	·	0%	16%
O=C(CN1CCc2ccccc2C1)c1cccs1	?	-6	-15%	?
COc1ccc(C2C3=C(Nc4ncnn42)c2ccccc2CC3)cc1OC (centres undefined)	·	6	27%	·
CCCc1ccc2oc(C(=O)NCCN3CCCC(C(N)=O)C3)c(C)c2c1 (centres undefined)	10%	·	-5%	-0.3%
CC(=O)Nc1ccc2nc(-c3ccccn3)[nH]c2c1	-18%	11	-26%	-5.8%
N#Cc1cc2c(nc1SCc1nc3ccccc3[nH]1)CCC2	·	-4	-4%	·
O=S(=O)(Nc1ccc2nc(N3CCOCC3)sc2c1)c1ccccc1	36%	·	·	0.0%
COc1cccc(NC(=O)CCNC(=O)Cn2ccc3ccccc3c2=O)c1	33%	3	-7%&-2%	2.0%
O=C(COc1ccc(Cl)cc1)NCc1nnc(SCC(=O)NCC2CCCO2)o1 (centres undefined)	10%	1	-2%	0.4%
CCNc1nc(OC)nc(N2CCC(Cc3ccccc3)CC2)n1	4%	-16	-5%	1.1%
O=c1cc(CN2CCC3(CC2)OCCO3)c2c(ccc3ccccc32)o1	-8%	-7	1%	-5.3%
O=C(O)CNC1=NCCCCC1	1%	11	1%	-6.1%
COc1ccc(N2CCN(C(=O)CN3c4cccc5cccc(c45)S3(=O)=O)CC2)cc1	1%	·	·	3.7%
CSc1ccccc1C(=O)Nc1cc(C)ccc1C	0%	1	-1%	1.9%
CN1CCc2c(sc3c2C(=O)NC(/C=C\c2ccccc2)N3)C1 (centres undefined)	?	-5	-8%	?
COC(=O)c1ccc(CSc2nc3ccccc3c(=O)n2N)cc1	-4%	·	-1%	-6.4%
CCN(C(=O)COC(=O)c1cc(=O)c2ccccc2o1)c1c(N)n(Cc2ccccc2)c(=O)[nH]c1=O	-6%	·	·	-2.0%
COc1ccc(C(c2nnnn2Cc2cccs2)N2CCN(c3ccc(F)cc3)CC2)cc1OC (centres undefined)	-4%	-4	5%	-2.7%
O=C(CCCN1C(=O)c2ccccc2C1=O)Nc1c(C(=O)C2CC2)oc2ccccc12	15%	-5	0%	2.2%
O=C(CCCn1c(=O)c2sccc2n(CC(=O)NCc2ccco2)c1=O)NCc1ccco1	6%	-27	-2%	-0.7%
CCc1cccc2c(C(=O)CN3C(=O)NC4(CCCCC4)C3=O)c[nH]c12	13%	·	·	3.1%
C/C(=N\NC(=O)CSc1ncccn1)c1ccc2c(c1)OCCO2	9%	0	-17%	-4.3%
Cc1nn(C)cc1NC(=O)CC12CC3CC(CC(C3)C1)C2	-13%	-4	-9%	0.6%
CCN1C(=O)N(S(=O)(=O)c2ccc(C)cc2)[C@@H](c2ccccc2)C(C(=O)OC)=C1C	-8%	3&1	?	-2.0%
CC1CCCCC12NC(=O)N(CC(=O)NCCc1ccccn1)C2=O (centres undefined)	2%	10	-6%	0.1%
CC1=NN(C(C#N)c2ccccc2)C(c2ccccc2)C1 (centres undefined)	-5%	-12	0%	1.9%
CC(=O)Nc1ccc(N=Cc2c(O)ccc3ccccc23)cc1	?	·	-2%	?
NC(=O)c1sc2cc(C(F)(F)F)cnc2c1-c1cccs1	0%	-2	-7%	-2.5%
Cc1ccc2c(c1)nnn2C1CCN(C(=O)C2CCCCC2)CC1	8%	-2	-6%	3.5%
CCC(=O)Nc1ccc(C(=O)CSc2nnc(-c3ccccc3F)n2CCc2ccccc2)cc1	11%	-6	-3%	-0.7%
O=C(Nc1ccc2nn(-c3ccccc3)nc2c1)c1ccc2c(c1)OCCO2	14%	12	8%	-5.8%
Cc1cn2c(=O)c(C(=O)N3CCN(c4ccccc4F)CC3)cnc2s1	-10%	·	·	0.3%
CCOc1ccccc1C(=O)NCC(=O)NNC(=O)c1cccc(S(=O)(=O)Nc2ccc(OC)cc2)c1	0%	·	·	-1.3%
COc1ccc(S(=O)(=O)N2CCCCCC2)cc1C(=O)N(C)CCOc1ccc(Cl)cc1	-7%	·	·	-2.2%
O=C1Nc2ccc(S(=O)(=O)N(CCO)CCO)c3cccc1c23	?	·	-12%	?
CC(/C=C/c1ccccc1)=N/NC(=O)Cn1nnc(N)n1	-3%	-7	0%	-0.6%
CCC(C(=O)NC(C)(C)C)N(C(=O)c1ccc(Cl)nc1)C1CCCC1 (centres undefined)	1%	9	2%	0.2%
NC1=NS(=O)(=O)NC1c1cccc(Cl)c1 (centres undefined)	1%	3	1%	-4.2%
COCCC(=O)NNS(=O)(=O)c1ccc(Cl)cc1	2%	1	-15%	1.4%
Cc1cc(C)c(S(=O)(=O)NC2CC3CCC2C3)c(C)c1 (centres undefined)	18%	·	7%	-2.5%
Nc1cc(=O)[nH]c(SCC(=O)Nc2ccc(Cl)c(Cl)c2)n1	0%	1	-6%	-2.6%
CCOC(=O)C1=C(C)NC(=S)N(C=O)C1c1ccccc1 (centres undefined)	-2%	4	6%	-2.1%
Cc1noc2ncnc(Oc3ccc(C(C)(C)C)cc3)c12	-6%	1	-1%	0.1%
O=C(COc1ccc(-n2cnnn2)cc1)Nc1ccc(F)cc1	1%	·	·	0.4%
O=C(COc1cccc2cccnc12)N/N=C1\SCC(=O)N1Cc1ccco1	-5%	-1	0%	-0.7%

4 entries from above, field by field.
C/C(=N\NC(=O)CSc1ncccn1)c1ccc2c(c1)OCCO2
  Rango dissoc inh: 9% | GLA inh pH 4.5: 0 | miR-21 reporter: -17% | Rango-impB inh: -4.3%
Cc1nn(C)cc1NC(=O)CC12CC3CC(CC(C3)C1)C2
  Rango dissoc inh: -13% | GLA inh pH 4.5: -4 | miR-21 reporter: -9% | Rango-impB inh: 0.6%
CCN1C(=O)N(S(=O)(=O)c2ccc(C)cc2)[C@@H](c2ccccc2)C(C(=O)OC)=C1C
  Rango dissoc inh: -8% | GLA inh pH 4.5: 3&1 | miR-21 reporter: ? | Rango-impB inh: -2.0%
CC1CCCCC12NC(=O)N(CC(=O)NCCc1ccccn1)C2=O (centres undefined)
  Rango dissoc inh: 2% | GLA inh pH 4.5: 10 | miR-21 reporter: -6% | Rango-impB inh: 0.1%

Other entries:
SMILES	Rango dissoc inh	GLA inh pH 4.5	miR-21 reporter	Rango-impB inh
COc1ccccc1N/C(N)=N/c1nc(C)cc(C)n1	2%	0	9%	-1.8%
CN1CCSc2ccc(C(=O)NCc3cccc(Br)c3)cc21	7%	·	-14%	-1.3%
CCCCNS(=O)(=O)c1ccc2nc(SCC(=O)Nc3ccccc3Cl)[nH]c2c1	2%	-10	19%	-0.9%
O=C(O)C1CCN(S(=O)(=O)c2ccc(N3CCOCC3)c([N+](=O)[O-])c2)CC1	-6%	7	1%	?
CC(C)(CNC(=O)c1cccs1)CNC(=O)c1cccs1	2%	2	-5%	3.5%
Cn1c(=O)c2c(nc(SCCN3CCOCC3)n2Cc2ccccc2)n(C)c1=O	4%	-2	-14%	-1.3%
Cc1ccc2cccc(OCc3ccc(Br)cc3)c2n1	-7%	·	-2%	0.3%
O=C1COc2ccc(OCc3ccc(F)cc3)cc21	-6%	5	-33%	0.3%
O=C(COc1cccc2ccccc12)NCc1cccnc1	-5%	5	-20%	-3.7%
CSc1ccc(CCNC(=O)CCc2nnc3ccc(N4CCC5(CC4)OCCO5)nn23)cc1	-17%	·	1%	-0.7%
CC1CN(Cc2ccccc2)C(C)CC1O (centres undefined)	2%	7	0%	-4.5%
COc1ccc(C(=O)NC(C(=O)NCCc2ccc3c(c2)OCCO3)C(C)C)cc1 (centres undefined)	-1%	-17	-10%	0.9%
CC12COC3(C(=O)Nc4cccnc4)CC1CCC32C (centres undefined)	-14%	-2	-16%	-1.0%
CCOC(=O)C1(Cc2ccccc2C(F)(F)F)CCN(CC2CC2)CC1	-3%	-8	-1%	0.3%
CC(C)C(=O)N(Cc1cc2ccccc2[nH]c1=O)C(C)C	6%	-2	3%	-2.0%
Cc1c(NC(N)=O)c(=O)n(-c2ccccc2)n1C	14%	-5	3%	-0.5%
O=C(CN1C(=O)/C(=C\c2ccco2)SC1=S)Nc1ccc(O)cc1C(=O)O	-15%	·	1%	4.1%
O=C(c1ccc(=O)oc1)N1CCOCC1	-2%	-2	-2%	5.8%
O=S(=O)(c1ccc(Br)c2ccccc12)N1CCOCC1	-2%	·	-14%	-1.0%
CC1CN(S(=O)(=O)c2ccc(C(=O)Nc3nnc(-c4ccc5c(c4)CCCC5)o3)cc2)CC(C)O1 (centres undefined)	-5%	-2	-7%	-3.6%
Cc1cc(O)c(C(C)C)cc1NC1=NS(=O)(=O)c2ccccc21	1%	-5	3%	7.6%
COC(C/C=C/[C@H](O)[C@@H](C)OCc1ccccc1)OC	2%	·	·	1.2%
CC[C@@H](C)CN1C(=O)N[C@@H](CCc2ccccc2)C(C(C)=O)=C1C	-8%	7&-3&-12	5%	4.0%
O=CN1CCN(C(=O)C(=O)c2cn(CC(=O)N3CCCCC3)c3ccccc23)CC1	5%	·	2%	5.9%
COCCCNC(=S)N(CCCN(C)C)Cc1cc2cc3c(cc2[nH]c1=O)OCCO3	6%	·	-12%	7.7%
Cc1ccc(S(=O)(=O)NCC(=O)OCC(=O)Nc2cccc(S(=O)(=O)N3CCOCC3)c2)cc1	5%	·	·	-3.6%
Cc1cc(C)nc(-n2ncc3c2CC(c2ccc(C(C)C)cc2)CC3=O)n1 (centres undefined)	-15%	-7	-6%	0.0%
C[n+]1cccc2ccc3c(c21)OC(N)=C(C#N)C3c1ccccc1 (centres undefined)	8%	-9	1%	1.4%
CCNC(=O)CCC(=O)Nc1cc(Cl)ccc1C	8%	14	-2%	3.3%
O=C1CCCCc2sc(Br)c([N+](=O)[O-])c2N1	7%	2	?	0.8%
CCCCOc1cccc(C(=O)NC(=S)Nc2cccc(NC(=O)c3ccccc3Cl)c2)c1	-4%	2	-13%	4.1%
O=C(N/N=C/C=C/c1ccccc1)C1CC1c1ccccc1 (centres undefined)	21%	-4	-7%	5.5%
CSc1nsc(SCc2ccc(F)cc2)n1	6%	-11	-15%	0.6%
C=CCNC(=O)c1onc(CSc2ccc(C(C)C)cc2)c1C(=O)O	23%	11	9%	-3.1%
CCc1cc2c(=O)c(-c3nc4ccccc4n3C)coc2c(CN2CCOCC2)c1O	2%	4	-4%	-3.8%
COc1cccc(C(=O)CC(=O)C(=O)Nc2ccc([N+](=O)[O-])cc2C)c1	9%	·	-7%	0.0%
CCN(CC)C(=O)N1CCN(c2c([N+](=O)[O-])c(=O)oc3ccccc23)CC1	-19%	·	·	-2.2%
Cc1ccc(-n2nc3c(=O)n(CCCC(=O)N4CCC(C)CC4)nc(C)c3c2C)cc1	1%	·	6%	1.8%
Cc1ccc(C(=O)C2=C(O)C(=O)N(CCN3CCOCC3)C2c2ccccn2)o1 (centres undefined)	·	7	-1%	·

Assay outcomes as filed in PubChem BioAssay.
